# From PubChem BioAssay
# Rce1 inhib: blocks yeast Ras-converting enzyme. Q03530. yeast membranes, quenched prenylated peptide cleavage fluorescence. calls only. 290,000 compounds, 0.27% hits;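 active means fall in fluorescence gain of 50% or more versus controls, with final raw signal at or below 3038400; inconclusive means same 50% fall but final raw signal above 3038400; inactive means fall in fluorescence gain under 50%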;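 further: plate controls were neutral control wells for no effect and wells lacking membranes for full effect; tested at 10 µM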
# Target sequence (Q03530 whole entry, looked up): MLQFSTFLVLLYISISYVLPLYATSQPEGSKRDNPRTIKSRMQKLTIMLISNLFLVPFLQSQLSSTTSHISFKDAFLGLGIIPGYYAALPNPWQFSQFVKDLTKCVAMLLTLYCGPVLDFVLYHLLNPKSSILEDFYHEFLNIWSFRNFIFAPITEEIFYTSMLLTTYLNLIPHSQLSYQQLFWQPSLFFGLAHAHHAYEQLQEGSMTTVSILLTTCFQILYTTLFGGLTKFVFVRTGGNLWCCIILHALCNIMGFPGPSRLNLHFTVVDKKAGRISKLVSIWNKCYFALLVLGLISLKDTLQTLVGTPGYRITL
# PABP FP inh: PABP-poly(A) binding inhibition; P11940; PABP-poly(A) RNA binding, fluorescence polarization; inhibition, % at 35 µM; 290,000 compounds, 1% hits;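 active means 50% or more with normal probe brightness, or confirmed in later tests; inconclusive means above 50% with abnormal brightness, or retests that disagree; inactive means below 50% or failed in later tests; about a fifth of its hits are not listed in these tables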;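 further: calls also rest on retests at 20 µM and on dose response follow-up; controls were probe without protein and protein plus probe with vehicle; some compounds called inactive have numbers as strong as hits; many hits fall short of the cut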
# Target sequence (P11940 whole entry, looked up): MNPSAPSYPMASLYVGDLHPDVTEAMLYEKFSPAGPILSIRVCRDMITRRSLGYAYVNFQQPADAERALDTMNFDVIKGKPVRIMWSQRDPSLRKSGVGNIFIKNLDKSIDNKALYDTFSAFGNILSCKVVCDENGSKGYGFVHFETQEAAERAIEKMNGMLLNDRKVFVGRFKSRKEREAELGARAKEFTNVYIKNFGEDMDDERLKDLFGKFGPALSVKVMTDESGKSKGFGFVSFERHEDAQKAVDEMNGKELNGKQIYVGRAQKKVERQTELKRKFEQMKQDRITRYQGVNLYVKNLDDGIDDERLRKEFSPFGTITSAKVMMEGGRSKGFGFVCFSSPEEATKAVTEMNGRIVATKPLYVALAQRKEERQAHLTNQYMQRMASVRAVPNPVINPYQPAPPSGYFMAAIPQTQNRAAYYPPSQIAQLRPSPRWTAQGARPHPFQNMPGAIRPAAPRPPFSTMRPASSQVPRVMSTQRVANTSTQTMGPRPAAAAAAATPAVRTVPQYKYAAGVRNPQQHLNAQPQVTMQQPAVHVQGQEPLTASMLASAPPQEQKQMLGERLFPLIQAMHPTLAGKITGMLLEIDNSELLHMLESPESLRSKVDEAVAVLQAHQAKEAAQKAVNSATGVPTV
# eIF4H FP inh: inhibitors of RNA binding by human eIF4H | AID 2012 | eIF4H fluorescence polarization binding assay | Q15056 | 290,000 compounds, 0.94% hits | inhibition, % at 35 µM;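 active means 50% or more with normal probe brightness, or confirmed in later tests; inconclusive means above 50% with abnormal brightness, or retests that disagree; inactive means below 50% or failed in later tests; about a fifth of its hits are not listed in these tables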;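 further: calls also rest on retests at 20 µM and on dose response follow-up; 0% = protein and probe with vehicle and 100% = probe without protein; strong numbers were not always called active; many hits fall short of the cut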
# MT1-MMP act inh: inhibitors of human MT1-MMP activation. P50281. HT1080 RFP-PRO-GFP cells, GFP/RFP ratio fluorescence, overnight; percent of plate control window, DMSO zero. GFP/RFP ratio change, % at 20 µM. 360,000 compounds, 0.061% hits. AID 651647;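 active means GFP/RFP ratio change of at least 30% with cell ATP level not reduced by more than half and red fluorescence within 50% of control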; further: strong numbers were not always called active
#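 Assay system: HT1080 RFP-PRO-GFP cells | Dosing: 20 µM single dose, 1% DMSO | Incubation: Cells overnight before dosing, compound overnight, 37 °C, 5% CO2 | Evaluation: GFP/RFP fluorescence ratio | Control set: DMSO-only wells and HT1080 RFP-L50D-GFP cell wells as references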
# Env fusion inh: inhibitors of HIV Env-mediated cell fusion; 360,000 compounds, 1.1% hits; HeLa-JRFL Env/CEM21 cell fusion, luciferase; inhibition, % at 12.3 µM;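 active means mean replicate inhibition score of at least 50 and every replicate individually at or above 50; inconclusive means only one of the two criteria met; inactive means mean below 50 and not all replicates reaching 50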;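 further: 0% = plate neutral controls and 100% = maraviroc near 300 nM; one replicate is shown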
# Yeast UUG start: alters start codon recognition fidelity in yeast; S. cerevisiae UUG-firefly luciferase reporter, luminescence/redox ratio; activity score, % at 18.7 µM; 350,000 compounds, 0.13% hits; AID 602363;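 active means replicate mean at a twofold rise or more, about +100% in these data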;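 further: firefly luciferase made from a UUG start codon reports start codon fidelity; reporter light over untreated wells divided by growth signal over untreated wells; some hits fall short of that in this replicate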
# CSC inhib: cancer stem cell inhibition; cancer stem cell-like cells viability, luminescence; inhibition, % at 7.5 µM; 300,000 compounds, 1.1% hits; AID 2717;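 active means mean at 75% or more and at least half the replicates too; inconclusive means mean and replicates disagree; tested in HMLE shEcad cells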;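 further: 0% = median of negative and 100% = median of positive control wells; the first replicate is given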
# MT1-MMP act inh RFP: further read-out of MT1-MMP act inh, marked with its call; RFP signal change, %; measured here: RFP expression control read;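 0 = vehicle wells; hits needed this value within 50% of zero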
# * hit, by the source's call; i = inactive; ? = inconclusive; nt = not tested or not shown. Some of the compounds tested, so the mix of outcomes need not match the whole.
SMILES,Rce1 inhib,PABP FP inh,eIF4H FP inh,MT1-MMP act inh,MT1-MMP act inh RFP,Env fusion inh,Yeast UUG start,CSC inhib
CCN(CC)S(=O)(=O)c1ccc2c(c1)oc(=O)n2CC(=O)NC1CCCCC1,i,-1,-7,0,1,3,nt,-6
CCN(CC)c1ccc(/C=N/NC(=O)OC(C)(C)C)cc1,i,2,-8,-3,-4,-11,1,-10
CCC(=O)N1CCc2cc(S(=O)(=O)CCC(=O)NCCc3ccc(OC)c(OC)c3)ccc21,i,-2,-2,3,7,nt,-8,-6
O=C(COC(=O)c1cc(=O)[nH]c2ccccc12)Nc1cccc(S(=O)(=O)N2CCOCC2)c1,i,14,-7,1,8,-2,8,-14
C=CCN1c2ccccc2[C@]23C[C@@H](C(=O)OC)N(C(=O)CC(C)C)C2=NC(C(=O)OC)=C(C(=O)OC)[C@H]13,i,10,-14,-2,-6,14,-2,9
COc1cc(OC)cc(C(=O)N[C@H](C(=O)NCc2ccccc2)C(C)C)c1,i,-7,-4,-8,-9,-5,-5,8
O=c1ccn(-c2cccc(C(F)(F)F)c2)nc1-c1ccn(-c2ccccc2)n1,i,4,3,-4,-5,nt,-7,1
O=C(NCC1CCCO1)C(c1ccc(F)cc1)N(Cc1ccc2c(c1)OCO2)C(=O)c1ccc(CN2CCOCC2)o1 (stereo unspecified),i,-8,-4,1,0,3,-2,nt
CCN(CC)S(=O)(=O)c1cccc(S(=O)(=O)c2cccc(S(=O)(=O)N(CC)CC)c2)c1,i,2,-2,-13,-15,79*,-1,9
CCCCC(=O)Nc1ncc([N+](=O)[O-])s1,i,-8,-2,-1,-6,-37,nt,9
COc1cccc(CNC(=O)CCC2CCCN(C(=O)CCn3cncn3)C2)c1 (stereo unspecified),i,-1,-4,3,9,8,nt,5
COc1cccc(CNC(=O)c2ccc(OC)c(S(=O)(=O)NC3CCCC3)c2)c1,i,nt,nt,2,-1,0,-4,nt
CCCCNC(=O)Cn1c(=O)oc2cc(S(=O)(=O)N3CC(C)CC(C)C3)ccc21 (stereo unspecified),i,16,-3,10,-8,-8,-17,4
COc1ccccc1C1=NOC(COC(=O)c2ccc3ccccc3n2)C1 (stereo unspecified),i,2,-9,-3,-4,nt,-11,-5
O=C(Cc1ccc(-n2c(=O)[nH]c3ccccc3c2=O)cc1)N1CCN(c2cccc(Cl)c2)CC1,i,-4,-5,3,-1,-5,-4,-14
Cc1cc2c(c(SCC(=O)N(C)c3ccccc3)n1)C(=O)OC2,i,-10,-6,2,1,16,-9,-15
COc1ccc(CCNC(=O)C(=O)Nc2nccs2)cc1OC,i,2,-2,8,4,-3,-19,-16
CN1CCN(S(=O)(=O)c2cccc(C(=O)Nc3nccs3)c2)CC1,i,10,-4,2,-1,-3,2,-8
Cn1c(SCC(=O)NNC(=O)c2ccc(Br)cc2)nnc1-c1cccnc1,i,-10,4,1,8,6,nt,-6
COc1ccccc1N(CC(=O)NCCN1CCOCC1)S(=O)(=O)c1ccccc1,i,-3,10,-2,0,2,-15,-2

# Quoted at random: 6 entries already listed
SMILES,Rce1 inhib,PABP FP inh,eIF4H FP inh,MT1-MMP act inh,MT1-MMP act inh RFP,Env fusion inh,Yeast UUG start,CSC inhib
COc1ccc(CCNC(=O)C(=O)Nc2nccs2)cc1OC,i,2,-2,8,4,-3,-19,-16
COc1cccc(CNC(=O)CCC2CCCN(C(=O)CCn3cncn3)C2)c1 (stereo unspecified),i,-1,-4,3,9,8,nt,5
CCCCNC(=O)Cn1c(=O)oc2cc(S(=O)(=O)N3CC(C)CC(C)C3)ccc21 (stereo unspecified),i,16,-3,10,-8,-8,-17,4
COc1cccc(CNC(=O)c2ccc(OC)c(S(=O)(=O)NC3CCCC3)c2)c1,i,nt,nt,2,-1,0,-4,nt
Cn1c(SCC(=O)NNC(=O)c2ccc(Br)cc2)nnc1-c1cccnc1,i,-10,4,1,8,6,nt,-6
CN1CCN(S(=O)(=O)c2cccc(C(=O)Nc3nccs3)c2)CC1,i,10,-4,2,-1,-3,2,-8

# (cont.)
SMILES,Rce1 inhib,PABP FP inh,eIF4H FP inh,MT1-MMP act inh,MT1-MMP act inh RFP,Env fusion inh,Yeast UUG start,CSC inhib
CCc1cccc(CC)c1NC(=O)COC(=O)c1ccccc1-c1nc2ccccc2s1,i,3,8,nt,nt,10,nt,26
Cc1c(CCC(=O)N2CCC(C(=O)O)(c3ccccc3)CC2)c(=O)oc2cc3oc4c(c3cc12)CCCC4,i,16,0,0,-3,nt,-5,4
CCOCCCNC(=O)CCNC(=O)c1cc(OC)c(OC)c(OC)c1,i,-7,-12,1,1,nt,nt,-11
CC(=O)c1ccc(NC(=O)C2CCCC2)cc1,i,13,-8,-5,-3,-7,1,nt
COc1ccc(C(=O)CC(=O)O)c2c1C=CC(C)(C)O2,i,2,11,11,8,-23,-9,-8
CCOC(=O)c1c(C)nc2sc3c(=O)n(-c4ccc(C(C)=O)cc4)cnc3c2c1-c1ccc(Cl)cc1,i,-9,-4,-5,-7,nt,2,6
O=C(CCCNC(=O)c1ccc(Cl)cc1)OCc1cccc(Br)c1,i,nt,nt,2,2,nt,nt,-6
COc1ccc(C/C(N)=N/OC(=O)Cc2ccccc2)cc1OC,i,0,0,0,0,nt,3,5
O=[N+]([O-])c1ccc2c(c1)S(=O)c1ccccc1-2 (stereo unspecified),i,-5,0,5,7,-4,-15,-15
O=C1CN(S(=O)(=O)c2ccc(Br)cc2)c2ccccc2N1,i,2,-12,2,6,-38,-3,-3
Cc1cc(=O)oc2c3c4c(cc12)OCCN4CCC3,i,2,42,-27,3,2,-2,7
O=C(O)C1C2C=CC(C2)C1C(=O)NCc1cccnc1 (stereo unspecified),i,-15,4,0,3,-39,-2,-6
COC(=O)c1cc(CNC(=O)CC(C)c2ccccc2)ccc1OC (stereo unspecified),i,7,-2,2,2,7,6,-5
COc1nnc(-c2ccc(C)c(S(=O)(=O)NCC3CCCO3)c2)c2ccccc12 (stereo unspecified),i,0,6,0,-2,3,2,nt
Cc1ccccc1CNC1CCCCC1,i,21,-16,2,4,5,-5,0
O=C(Cc1cccc(NC(=O)C2CCCN(C(=O)C3CCCC3)C2)c1)Nc1ccc(C(=O)N2CCCCC2)cc1 (stereo unspecified),nt,nt,nt,3,-2,2,3,nt
Cc1ccc(S(=O)(=O)Cc2cccc(C(=O)N3CCOCC3)c2)cc1,i,6,0,0,4,nt,-12,0
Cc1cccnc1NC1OC(=O)c2ccccc21 (stereo unspecified),i,-6,7,0,2,nt,-19,9
CCCCCCCc1ccc(C2NC(=S)NC3=C2C(=O)c2ccccc23)cc1 (stereo unspecified),i,-2,5,nt,nt,nt,nt,9
Cc1ccc(-c2c[n+](CC(=O)Nc3nc(-c4ccc(F)cc4)cs3)c3n2CCC3)cc1,i,10,0,-7,-16,16,12,4
CCC(C)NC(=O)c1cc2cc3ccc(OC)cc3nc2s1 (stereo unspecified),?,2,3,16,-2,-411,-27,-17
COc1ccc(CCNC(=O)[C@@H](NC(N)=O)C(C)C)cc1,i,4,1,0,2,2,nt,-6
Cn1ccnc1SCCNC(=O)CCc1nnc(CCc2ccccc2)o1,i,-12,-7,1,2,-20,nt,-10
CN1/C(=C\C(=O)C[n+]2ccc3ccccc3c2)C(C)(C)c2ccccc21,i,16,27,-25,-25,42,nt,nt
CCOc1cccc2sc(N(CCN(CC)CC)C(=O)c3ccc(S(=O)(=O)N4CCCCC4)cc3)nc12,i,21,3,6,7,1,nt,nt
Cc1ccc2[nH]c(=O)c(CN(CC3CCCO3)C(=S)NCc3ccco3)cc2c1 (stereo unspecified),i,-3,1,5,-3,-70,nt,-2
c1ccc2sc(-c3ccc4c(c3)OCO4)nc2c1,nt,5,6,0,-2,nt,-67,31
CN(C)c1ccc(C2Nc3ccccc3C(=O)N2NS(C)(=O)=O)cc1 (stereo unspecified),i,4,-9,1,2,10,-9,-11
CC1S/C(=N/N=C2CCCCC2)NC1=O (stereo unspecified),i,11,-4,2,0,-3,-17,-11
CCn1c(=O)c(C(=O)NNC(=O)c2cccc(Cl)c2)c(O)c2ccccc21,i,-3,6,3,0,2,-13,nt
Clc1ccc(CN=C2Nc3ccccc3CS2)cc1,i,21,-13,7,0,-241,-17,6
CCCCn1c(CCC(=O)O)nc2cc(S(=O)(=O)N3CCCC3)ccc21,nt,nt,nt,1,6,1,-8,3
COc1ccc(NC(=O)CN(C)C(=O)c2cccc(S(=O)(=O)N3CC4(C)CC3CC(C)(C)C4)c2)cc1 (stereo unspecified),i,nt,nt,-1,-3,3,12,-7
Cn1c(N)c(C(=O)NCc2ccccc2)sc1=S,i,?,?,-12,3,-18,65,-14
Cn1c(=S)c2[nH]c(SCc3cccnc3)nc2n(C)c1=O,nt,nt,nt,1,0,-16,-12,nt
Nc1ccccc1C#Cc1ccc2[nH]ccc2c1,i,nt,nt,5,5,-54,-9,-8
CS(=O)(=O)c1ccc(-c2cccc(NC(=O)COc3ccccc3)c2)nn1,i,-5,-2,-5,-1,-1,-14,-4
NC(c1csc(Nc2cc(Oc3ccccc3)ncn2)n1)c1ccccc1Cl (stereo unspecified),nt,nt,nt,-3,-6,5,-23,nt
COc1ccc(N(CC(=O)Nc2cc(C)ccc2OC)S(=O)(=O)c2c(C)noc2C)cc1,i,-4,-4,0,-8,-179,30,51
Cc1ccc(Oc2nc(CN3CCOCC3)nc3sc4c(c23)CCC(C)C4)cc1 (stereo unspecified),i,7,-1,-10,-6,20,-9,61

# Of the compounds above, these have a nitro group on carbon:
SMILES,Rce1 inhib,PABP FP inh,eIF4H FP inh,MT1-MMP act inh,MT1-MMP act inh RFP,Env fusion inh,Yeast UUG start,CSC inhib
CCCCC(=O)Nc1ncc([N+](=O)[O-])s1,i,-8,-2,-1,-6,-37,nt,9
O=[N+]([O-])c1ccc2c(c1)S(=O)c1ccccc1-2 (stereo unspecified),i,-5,0,5,7,-4,-15,-15

# Results in Yeast UUG start and Rce1 inhib (three entries from above):
SMILES	Yeast UUG start	Rce1 inhib
Cn1c(N)c(C(=O)NCc2ccccc2)sc1=S	65	i
Cn1c(=S)c2[nH]c(SCc3cccnc3)nc2n(C)c1=O	-12	nt
Nc1ccccc1C#Cc1ccc2[nH]ccc2c1	-9	i

# (listing goes on)
SMILES,Rce1 inhib,PABP FP inh,eIF4H FP inh,MT1-MMP act inh,MT1-MMP act inh RFP,Env fusion inh,Yeast UUG start,CSC inhib
CC(O/N=C(\N)c1ccccc1)C(=O)Nc1cccc(C(F)(F)F)c1 (stereo unspecified),nt,nt,nt,1,3,-21,-17,-3
CCOC(=O)NC(NCc1cccc(C(F)(F)F)c1)(C(F)(F)F)C(F)(F)F,i,7,9,0,2,16,nt,-3
CC(C)C1=NN(C(=O)c2ccccc2)C(O)(C(C)(C)C)C1 (stereo unspecified),i,-6,-5,1,2,nt,-8,-14
Cn1c(C(C(=O)NCC2CCCO2)N(C(=O)Cn2nnc3ccccc32)C2CCCCC2)nc2ccccc21 (stereo unspecified),i,2,2,5,2,-114,-3,-13
